High-throughput results from PubChem.
HPGD inh – qHTS Assay for Inhibitors of HPGD (15-Hydroxyprostaglandin Dehydrogenase); 15-hydroxyprostaglandin dehydrogenase [NAD(+)] (Homo sapiens), P15428; purified HPGD, NADH fluorescence kinetic, PGE2 substrate; Potency, µM, for inactives: top-dose activity change, negative = inhibition, actives largely listed as inhibitors; 150,000 tested, 4.3% active; active = well fitted inhibition curve with a large enough effect (not every such curve was filed as active); inconclusive = small, poorly fitted or top-dose-only effect, or another doubt; inactive = no such curve, though single readings can be large or run the other way;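 also: top concentration of the series not given in the record; plate controls included wells without enzyme; inactives centre near -10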
Target sequence (P15428 whole entry, looked up): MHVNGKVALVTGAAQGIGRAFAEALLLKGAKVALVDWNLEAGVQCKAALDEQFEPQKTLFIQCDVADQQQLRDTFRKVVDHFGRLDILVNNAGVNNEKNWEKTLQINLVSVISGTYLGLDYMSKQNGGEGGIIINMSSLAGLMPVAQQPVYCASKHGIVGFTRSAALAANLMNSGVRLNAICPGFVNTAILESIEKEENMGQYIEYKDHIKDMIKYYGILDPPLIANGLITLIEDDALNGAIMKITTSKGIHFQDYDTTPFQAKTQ
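NADH formation kinetics: reaction with 30 uM PGE2 and 1 mM NAD+ (final), 20 nM enzyme, Tris-HCl pH 8 with Tween 20, after 15 min compound preincubation at room temperature. Fluorescence change, last versus first of five reads.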
Numbers without * were called inactive. % is scaled to controls: 0 for no effect and ±100 for the full control effect; potency is read from the fitted curve at half-maximal effect. Some of the compounds tested, so the mix of outcomes need not match the whole.

Screening O=[N+]([O-])c1ccc(CSc2nnc(Cc3ccccc3)n2-c2ccc(F)cc2)cc1 returned HPGD inh -7%.
For CCCS(=O)(=O)N1CCN(S(=O)(=O)c2ccccc2)CC1 the results were HPGD inh 3%.
Screening CN1Cc2cc(C(=O)c3cc(Cl)cc(CSc4ncccn4)c3O)cnc2NC1=O returned HPGD inh 14µM*.
`CCOC(=O)c1c(C)nc2c(c1-c1ccc(OC)c(OC)c1)C(=O)c1ccccc1-2` gave HPGD inh -8%.
Screening COc1ccc2cc3c(N)nn(C(=O)c4cccc([N+](=O)[O-])c4)c3nc2c1 returned HPGD inh -20%.
For C1=C(c2ccccc2)CCN(c2ncnc3nc[nH]c23)C1 the results were HPGD inh -19%.
`CCN(C(=O)COC(=O)c1ccc(OCc2c(C)noc2C)cc1)c1ccccc1` gave HPGD inh -7%.
CN1CCN(/C=N/C2=C(C#N)C(c3ccccc3)C3=C(CC(C)(C)CC3=O)O2)CC1 (configuration not stated) was read as HPGD inh -2%.
For CC1(C)CC(=O)C2=C(C1)N(CCN1CCOCC1)C1=C(C(=O)CC(C)(C)C1)C2c1cccc(F)c1 the results were HPGD inh inconclusive.
For Cc1ccc2c(C)c(C(=O)Nc3nnc(C)s3)oc2c1 the results were HPGD inh inconclusive.
O=C(CCCSc1nc2sc3c(c2c(=O)[nH]1)CCC3)NCCO was read as HPGD inh inconclusive.
For CC(=O)Oc1ccc2c(=O)c(Oc3ccccc3)c(C)oc2c1OC(C)=O the results were HPGD inh inconclusive.
`COc1ccccc1-n1c(CNC(=O)c2ccc(S(=O)(=O)N3CCOCC3)cc2)n[nH]c1=S` gave HPGD inh inconclusive.
Cc1cc2c(c(=O)o1)C(c1cccs1)C(C#N)=C(N)O2 (configuration not stated) was read as HPGD inh -15%.
COc1ccc(N2C(=O)CC(Nc3ccc(N4CCOCC4)cc3)C2=O)c(OC)c1 (configuration not stated) was read as HPGD inh -1%.
COc1cc2c(cc1OC)C(c1ccc(C)o1)CC(=O)N2 (configuration not stated) was read as HPGD inh -5%.
`CC(C)CNC(=O)COC(=O)c1ccc(Cl)c(S(N)(=O)=O)c1` gave HPGD inh -8%.
For O=C(CSc1cccs1)Nc1cccc2ccccc12 the results were HPGD inh -8%.
CCOC(=O)c1ccc(N/C=C/C(=O)c2ccco2)cc1 was read as HPGD inh -21%.
`O=C(Nc1cc(Cl)ccc1Cl)c1ccc(-c2ccccc2)cc1` gave HPGD inh -10%.

Structural class: the entries above with a cyano group
CN1CCN(/C=N/C2=C(C#N)C(c3ccccc3)C3=C(CC(C)(C)CC3=O)O2)CC1 (configuration not stated) was read as HPGD inh -2%.
Cc1cc2c(c(=O)o1)C(c1cccs1)C(C#N)=C(N)O2 (configuration not stated) was read as HPGD inh -15%.

Going on with the list.
CCCCc1ccc(N2C(=O)[C@@H]3C(CC(N)=O)NC4(C(=O)Nc5ccc(F)cc54)[C@@H]3C2=O)cc1 (some centres not stated) was read as HPGD inh -12%.
For CCn1c(C(C)NC(=O)c2ccc(C)cc2)n[nH]c1=S (configuration not stated) the results were HPGD inh -18%.
For Cc1nc2ccccc2n1S(=O)(=O)N(C)C the results were HPGD inh -3%.
`CCOC(=O)c1c(NC(=O)CS(=O)(=O)c2cn(CC)c3ccccc23)sc2c1CCCCC2` gave HPGD inh -10%.
For COC(=O)CNC(c1ccccc1)c1cc(Br)ccc1NS(=O)(=O)c1ccccc1 (configuration not stated) the results were HPGD inh -9%.
Screening C/C(CC(=O)NCc1ccco1)=N\NC(=O)C(c1ccccc1)c1ccccc1 returned HPGD inh -5%.
Screening COc1cc(NS(=O)(=O)c2ccc(NC(=O)CSC3=NCCS3)cc2)nc(OC)n1 returned HPGD inh -7%.
Screening CCOc1cc2nc(-c3ccc(OC)c(OC)c3)nc(N3CC(C)OC(C)C3)c2cc1OC (configuration not stated) returned HPGD inh inconclusive.
Screening CC(C)N1C(=O)C2ON(c3ccccc3)C(c3cccs3)C2C1=O (configuration not stated) returned HPGD inh -4%.
Screening COc1ccc(NC(=O)N2CCCC3(CCN(C(=O)c4csnn4)CC3)C2)cc1 returned HPGD inh -2%.
Screening O=C(Nc1cc(S(=O)(=O)Nc2ccc(Cl)cc2)ccc1N1CCCCC1)c1ccc(F)cc1 returned HPGD inh inconclusive.
For CC(=O)c1ccc(NC(=O)CCSCCC(=O)Nc2ccc(C(C)=O)cc2)cc1 the results were HPGD inh -10%.
`CCOC(=O)c1cnn(-c2ccccc2)c1-n1cccc1C(=O)C(=O)Nc1ccc(OC)cc1` gave HPGD inh -14%.
`O=C(O)c1ccccc1C(=O)Nc1ccc(S(=O)(=O)NC2CCCCC2)cc1` gave HPGD inh -12%.
`COc1ccccc1NC(=O)N1CCCC1C(=O)NC1CCCCC1` (configuration not stated) gave HPGD inh -6%.
`CC1CC(c2ccccc2)n2nc(NC(=O)c3ccco3)nc2N1` (configuration not stated) gave HPGD inh -6%.
Screening O=C(COC(=O)C12CC3CC(CC(C3)C1)C2)N1CCN(S(=O)(=O)c2ccccc2)CC1 returned HPGD inh -1%.
Screening CN(C(=O)COC(=O)CNS(=O)(=O)/C=C/c1ccccc1)C1CCS(=O)(=O)C1 (configuration not stated) returned HPGD inh -2%.
For CCC(=O)Nc1ccccc1C(=O)OCC(=O)Nc1ccc(S(N)(=O)=O)cc1 the results were HPGD inh -14%.
CCn1c(C)cc(/C=C2\NC(=O)N(Cc3ccc(Cl)cc3)C2=O)c1C was read as HPGD inh -18%.

Reprinted from the entries so far (two entries):
For CCC(=O)Nc1ccccc1C(=O)OCC(=O)Nc1ccc(S(N)(=O)=O)cc1 the results were HPGD inh -14%.
CCn1c(C)cc(/C=C2\NC(=O)N(Cc3ccc(Cl)cc3)C2=O)c1C was read as HPGD inh -18%.

Remaining list, next part
COc1ccc(-c2csc3[nH]c(=S)n(-c4ccccc4)c(=O)c23)cc1OC was read as HPGD inh -17%.
`Cn1c(=O)c2c(nc(Br)n2CCSc2nc3ccccc3o2)n(C)c1=O` gave HPGD inh 32µM*.
`CCCCCC(=O)Nc1cc(N(C)C)nc2ccccc12` gave HPGD inh inconclusive.
Screening CC(C)OCCCNC(=O)CN1C(=O)CC(C)(C)S(=O)(=O)c2ccccc21 returned HPGD inh -7%.
Screening O=C(/C=C/c1ccccc1)N1CCN(C(=O)c2ccco2)CC1 returned HPGD inh -7%.
COc1cc(CCN2C(=O)c3cccc4cccc(c34)C2=O)c(S(=O)(=O)NCCCO)cc1OC was read as HPGD inh -6%.
Cn1c(=O)[nH]c(=O)c2c1nc(N(CCO)Cc1ccccc1)n2CCCc1ccccc1 was read as HPGD inh 1%.
O=C(NNC(=O)[C@@H]1CCCC[C@@H]1C(=O)O)c1cccs1 was read as HPGD inh 2%.
`O=C(Nc1ccc2c(c1)OCCO2)c1cccs1` gave HPGD inh 20µM*.
For Cc1ccc(NC(=O)Cn2c(=O)cnc3ccccc32)cc1S(=O)(=O)N(C)C the results were HPGD inh -13%.
Screening CCOC(=O)c1c(C)cc(O)c(C)c1O returned HPGD inh -9%.
For N#C/C(=C1/CCCCCN1)c1nc2ccccc2s1 the results were HPGD inh -9%.
Screening CCCCOC(=O)Nc1cccc(Cl)c1C returned HPGD inh -22%.
Screening c1ccc2c(c1)CCC[C@@H]2C1=NCCN1 returned HPGD inh -5%.
For CCONc1ncnc2nonc12 the results were HPGD inh -20%.
Screening Cc1ccc(S(=O)(=O)N(C)C)cc1NC(=O)C1CCCC1 returned HPGD inh -29%.
COc1ccccc1NC(=O)N1CCC(c2nc3cc(C)c(C)cc3[nH]2)CC1 was read as HPGD inh -7%.
CCCCC(=Nc1ccc(N)cc1)C1=C(O)C(C(=O)OC)C(C)(C)CC1=O (configuration not stated) was read as HPGD inh -4%.
`Cc1[nH]n(-c2cccc(Cl)c2)c(=O)c1-c1ccc(Cl)cc1` gave HPGD inh -13%.
Screening Ic1ccc2c(c1)N(c1ccccc1)c1cc(Nc3ccc4nc5ccc(I)cc5[n+](-c5ccccc5)c4c3)ccc1N2 returned HPGD inh -16%.

Molecules above with a nitro group on carbon, in the order listed:
Screening O=[N+]([O-])c1ccc(CSc2nnc(Cc3ccccc3)n2-c2ccc(F)cc2)cc1 returned HPGD inh -7%.
Screening COc1ccc2cc3c(N)nn(C(=O)c4cccc([N+](=O)[O-])c4)c3nc2c1 returned HPGD inh -20%.

More results follow:
COc1ccc(N2C(=O)CC(SCCc3nc4ccccc4[nH]3)C2=O)cc1 (configuration not stated) was read as HPGD inh -6%.
`COc1ccc(CCN(C(=O)C(F)(F)F)C(C(=O)NC2CCCC2)c2cccs2)cc1OC` (configuration not stated) gave HPGD inh -11%.
For CC(C)(C)c1cc(C(C)(C)C)cc(S(=O)(=O)CCc2ccccn2)c1 the results were HPGD inh -13%.
Cc1ccc(C(NC(=O)c2ccccc2)C(Cl)(Cl)Cl)cc1 (configuration not stated) was read as HPGD inh -5%.
CS(=O)(=O)N1CCN(c2ccc(NC(=O)Cc3ccccc3)cc2)CC1 was read as HPGD inh -10%.
`CCN1C(=O)/C(=C/c2ccc(C)s2)SC1=Nc1ccc(OC)cc1` gave HPGD inh -14%.
O=C(N/N=C/c1c[nH]c2ccccc12)c1ccn(Cc2ccc(Cl)cc2)n1 was read as HPGD inh -16%.
`CCCCN1CN(S(=O)(=O)c2cccs2)c2nc3ccccc3nc21` gave HPGD inh -20%.
For CN1CCN(Cc2cccc(Oc3ccc(Cl)cc3)c2)CC1 the results were HPGD inh -7%.
COC(=O)c1c(C)oc2ccc(N(C(=O)Oc3ccccc3)S(=O)(=O)c3ccc(Cl)c([N+](=O)[O-])c3)cc12 was read as HPGD inh -11%.
CCCCCC1CC(=O)N(Cc2ccc(Cl)cc2)C(=O)N1 (configuration not stated) was read as HPGD inh -5%.
`Cc1nn(C)c(C)c1CN(C)C(=O)c1nn2c(c1Br)NC(c1cccs1)CC2C(F)(F)F` (configuration not stated) gave HPGD inh -18%.
`CCn1c(COc2ccccc2)nnc1SCC(=O)Nc1ccc2c(c1)OCCO2` gave HPGD inh -11%.
Screening Cc1cccc(N=Cc2cc3c(cc2[N+](=O)[O-])OCO3)c1 returned HPGD inh -20%.
Screening COc1ccc(-c2cc(C(=O)Nc3cnn(Cc4ccccc4C)c3)no2)cc1OC returned HPGD inh inconclusive.
`COc1ccc(Oc2ncc3nc(-c4cccs4)c(=O)n(Cc4cccc(OC)c4)c3n2)cc1` gave HPGD inh -16%.
Screening O=C(Nc1ccc(C(=O)N2CCCC2)cc1)c1ccc2c(c1)OCO2 returned HPGD inh 6.3µM*.
For COc1cccc(-c2nnn(CC(=O)O)n2)c1 the results were HPGD inh -14%.
`Cc1cc(=O)n(-c2ccc3ccccc3n2)[nH]1` gave HPGD inh -5%.
Screening CCCc1cc(N2CCCC(C(=O)Nc3ccc(OC)cc3OC)C2)n2ncnc2n1 (configuration not stated) returned HPGD inh 28µM*.
For Cc1sc2nc(CSc3ccccc3)nc(N3CCOCC3)c2c1C the results were HPGD inh -17%.
Screening COC(=O)CCC(=O)OC1(C)C(=O)C=C2C=C(C3CC3)N(CCN3CCOCC3)C=C2C1=O (configuration not stated) returned HPGD inh -9%.
`CCC(C)NC(=O)CCC(=O)Nc1ccc2nc(N3CCOCC3)cc(C)c2c1` (configuration not stated) gave HPGD inh inconclusive.
Cn1c(NCCc2ccccc2)cc(=O)n(C)c1=O was read as HPGD inh -8%.
`COc1cc(C(=O)Nc2ccccc2N2CCOCC2)ccc1OCc1c(C)noc1C` gave HPGD inh -10%.
Screening O=C(CSc1ncccn1)NCCc1ccccc1 returned HPGD inh inconclusive.
Screening CSc1ccccc1C(=O)NCc1ccc2c(c1)OCO2 returned HPGD inh 0.5µM*.
Screening COC(=O)CCCCCCCCC(=O)Nc1nc2ccccc2s1 returned HPGD inh 0%.
Screening O=C(Nc1ccc(C(F)(F)F)cc1)C1CCCN1S(=O)(=O)c1cccc2cccnc12 (configuration not stated) returned HPGD inh -17%.
`Cc1ccc(C(=O)Nc2ccccc2SCC2CSc3nc4ccccc4c(=O)n32)cc1` (configuration not stated) gave HPGD inh -25%.
Screening COC(=O)C1(O)CC(C(C)C)=NN1C(=O)c1ccccc1 (configuration not stated) returned HPGD inh 3%.
For CCOc1ccc(Br)cc1CNCCN1CCOCC1 the results were HPGD inh -5%.
`N#Cc1nc(-c2ccc(F)cc2)oc1NCCN1CCOCC1` gave HPGD inh inconclusive.
NNC(=O)CNC(c1ccccc1)c1cc(Br)ccc1NC(=O)CCN1CCOCC1 (configuration not stated) was read as HPGD inh -27%.
For CC(=O)c1ccc(-n2c(SCC(=O)c3c[nH]c4ccccc34)nc3ccccc3c2=O)cc1 the results were HPGD inh 28µM*.
O=C(O)c1ccc(S(=O)(=O)Cc2ccccc2)cc1 was read as HPGD inh -11%.
For COc1cccc(/C=N/Nc2snc(SC)c2C#N)c1O the results were HPGD inh -4%.
For Cc1nc(NCCO)c2nnn(Cc3ccccc3F)c2n1 the results were HPGD inh 2%.
For O=C(/C=C/c1cccs1)c1cc(Cl)ccc1OC(=O)N1CCOCC1 the results were HPGD inh -13%.
`COc1ccc(OC)c(-c2nnc(SCC(=O)NC3CCCCC3)o2)c1` gave HPGD inh -17%.
CCCCOc1ccccc1C(=O)NCC(=O)O was read as HPGD inh -18%.
COc1ccc(-c2noc(CSc3nnc(Cc4ccccc4)n3-c3ccc(Cl)cc3)n2)cc1 was read as HPGD inh -7%.
For CC(=O)c1sc(Nc2nc(C)cc(C)n2)nc1C the results were HPGD inh 14µM*.

Arranged by count of non-hydrogen atoms (smallest number first): 3 of the compounds above.
For CC(=O)c1sc(Nc2nc(C)cc(C)n2)nc1C the results were HPGD inh 14µM*.
O=C(O)c1ccc(S(=O)(=O)Cc2ccccc2)cc1 was read as HPGD inh -11%.
For CCOc1ccc(Br)cc1CNCCN1CCOCC1 the results were HPGD inh -5%.
